Assay outcomes (PubChem BioAssay)
RanGTP-Imp inh – disruptors of Ran-importin-beta complex formation – biochemical, FRET, CFP-Ran, YFP-importin-beta, homogeneous, primary screen | cell-free CFP-Ran/YFP-importin-beta FRET ratio | inhibition, % (concentration not given with the values) | 1.1% of 300,000 active;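 active = most replicates above 15%; inconclusive = exactly half above 15%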;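 note: 0% = DMSO wells and 100% = Ran loaded with GDP instead of GTP; wells of about 40 µL received 100 nL stock; the first replicate is given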
FGF22 binding – binders of recombinant human FGF22 by thermal shift. SYPRO orange fluorescence; percent of sucrose octasulfate shift, DMSO zero. calls only at 9.99 µM. 1.5% of 340,000 active;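 active = melting point raised past a set limit in the mean and every replicate; inconclusive = no clear call; three in four hits are not shown here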
Target sequence (Q9HCT0 whole entry, looked up): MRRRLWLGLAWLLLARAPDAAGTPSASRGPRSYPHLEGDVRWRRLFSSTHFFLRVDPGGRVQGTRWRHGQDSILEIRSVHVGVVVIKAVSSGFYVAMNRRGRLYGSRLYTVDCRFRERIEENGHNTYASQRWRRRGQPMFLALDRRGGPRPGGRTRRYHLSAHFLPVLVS
MLL AF4-AF9 inh – MLL-AF4/AF9 protein interaction inhibition | AlphaScreen, biotin-AF4 peptide binding to FLAG-AF9 | inhibition, % at 10 µM | 0.47% of 350,000 active | AID 651704;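 active = every replicate reaching a set inhibition limit, whatever the replicate mean, cut at about 25% in these data; inconclusive = mean inhibition reaches that limit but some replicates miss it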;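 note: 0% = plate neutral control median and 100% = total signal loss; the record names both 10 and 1 µM as test concentration; the first replicate is given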
Target sequence (P42568 whole entry, looked up): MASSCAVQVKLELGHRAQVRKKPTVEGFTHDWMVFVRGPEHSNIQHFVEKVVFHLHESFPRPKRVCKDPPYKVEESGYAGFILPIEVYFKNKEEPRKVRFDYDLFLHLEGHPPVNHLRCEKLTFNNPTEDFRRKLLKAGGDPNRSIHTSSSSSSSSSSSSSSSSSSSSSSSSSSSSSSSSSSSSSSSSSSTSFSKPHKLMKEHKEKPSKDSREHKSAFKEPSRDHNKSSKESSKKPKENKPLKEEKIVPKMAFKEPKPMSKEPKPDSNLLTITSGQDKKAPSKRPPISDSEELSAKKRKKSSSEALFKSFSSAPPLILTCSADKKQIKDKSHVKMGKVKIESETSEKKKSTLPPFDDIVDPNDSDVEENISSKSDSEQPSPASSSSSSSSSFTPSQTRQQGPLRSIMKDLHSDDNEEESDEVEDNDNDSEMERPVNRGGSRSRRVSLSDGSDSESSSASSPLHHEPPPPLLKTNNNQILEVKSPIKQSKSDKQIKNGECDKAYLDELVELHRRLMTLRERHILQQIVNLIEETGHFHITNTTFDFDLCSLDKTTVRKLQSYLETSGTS
Vif TR-FRET – inhibitors of Vif binding to APOBEC3G peptide, primary screen, biochemical, TR-FRET, GST-Vif 1-94, biotin-A3G peptide, dose response retest (AID 1117319); inhibition, %; hits with a dose series show IC50 in µM; TR-FRET GST-Vif / biotin-A3G peptide binding; higher % means a stronger effect; test concentration not given here; strong numbers were not always called active; 0.57% of 260,000 active;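 active = above the screen mean plus three standard deviations and confirmed in dose response; inconclusive = results disagree or hit not tested in dose response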;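 note: Vif residues 1-94 fused to GST binding biotinylated APOBEC3G peptide 110-148; 0% = full assay without inhibitor and 100% = GST in place of GST-Vif; retest series ran down from 100 µM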
HNF4A DNA FP – change in binding of human HNF4 alpha to DNA; P41235; HNF4a-FITC DNA binding, fluorescence polarization, 1 h; activity change, % at 10 µM; 0.3% of 360,000 active; AID 1224865; in the data active = activity change above about 30%, passing the limit was not always enough;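 note: controls were the assay level and a saturating level of protein; the project sought stronger binding though the title names inhibitors; some compounds called inactive have numbers as strong as hits; positive values seem to mean higher polarization but the record does not say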
Ecoli growth – E. coli growth inhibition; 0.21% of 330,000 active; AID 1053175; OD600 absorbance (no concentration beside the values); Escherichia coli growth, OD600, 23 h; active compounds read low;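 active = OD600 absorbance below the run mean of sample wells minus 3.6 SD, in any replicate, cut at about 0.56 in these data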;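 note: stock transfer was 300 nL into about 60 µL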
UCH37 inh – blocks the human deubiquitinase UCH37. Q9Y5K5. purified proteasome/UCH37, Ub-AMC cleavage fluorescence. inhibition, % (no concentration beside the values). 0.33% of 330,000 active;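 active = mean of two replicates above 20%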;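 note: 0% = compound-free wells with enzyme and 100% = wells lacking proteasome; stock transfer was 100 nL into about 20 µL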
Target sequence (Q9Y5K5 whole entry, looked up): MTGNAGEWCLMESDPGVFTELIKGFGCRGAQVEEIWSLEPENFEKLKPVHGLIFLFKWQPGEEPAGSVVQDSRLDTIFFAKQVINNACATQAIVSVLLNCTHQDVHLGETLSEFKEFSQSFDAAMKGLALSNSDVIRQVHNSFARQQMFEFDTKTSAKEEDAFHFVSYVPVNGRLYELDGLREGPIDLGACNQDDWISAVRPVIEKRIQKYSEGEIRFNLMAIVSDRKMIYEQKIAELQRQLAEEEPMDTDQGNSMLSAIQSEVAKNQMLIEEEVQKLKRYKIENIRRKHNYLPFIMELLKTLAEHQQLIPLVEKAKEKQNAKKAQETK
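assay system = human UCH37 enzyme supplied as purified proteasome complex | amount = proteasome at 0.15 nM in the dispensed enzyme solution | schedule = 30 min compound-proteasome preincubation then 25 min substrate reaction, room temperature | measured by = fluorescence, ex 355 nm, em 460 nm | benchmarks = no-proteasome wells (full inhibition) and compound-free wells (no inhibition)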
An asterisk follows results filed as active; i = inactive; ? = inconclusive; / = no result given; & = joins results of further samples. Not all compounds are listed; rates above refer to the full screens.

Sample of the layout (2 entries):
SMILES | RanGTP-Imp inh | FGF22 binding | MLL AF4-AF9 inh | Vif TR-FRET | HNF4A DNA FP | Ecoli growth | UCH37 inh
CN(C)S(=O)(=O)c1cc(C(=O)NCCCn2ccc3ccccc32)ccc1Cl | -1.8 | / | / | -5% | -1.8 | 0.7 | 3.5
O=C(Nc1ccccn1)C(F)(F)C(F)(F)C(F)(F)C(F)(F)C(=O)Nc1ccccn1 | 1.1 | i | 2.7 | / | -0.4 | 0.69 | 2.7

The list itself, from the first entry:
SMILES | RanGTP-Imp inh | FGF22 binding | MLL AF4-AF9 inh | Vif TR-FRET | HNF4A DNA FP | Ecoli growth | UCH37 inh
CN(C)S(=O)(=O)c1cc(C(=O)NCCCn2ccc3ccccc32)ccc1Cl | -1.8 | / | / | -5% | -1.8 | 0.7 | 3.5
O=C(Nc1ccccn1)C(F)(F)C(F)(F)C(F)(F)C(F)(F)C(=O)Nc1ccccn1 | 1.1 | i | 2.7 | / | -0.4 | 0.69 | 2.7
Cc1c(C(=O)Nc2ccc(Oc3ccccc3)cc2)sc2nc3n(c(=O)c12)CCC3 | 3.2 | / | / | -4%&0% | 2.2 | 0.7 | 2.6
O=C(CS(=O)CC(=O)N(c1cccc(F)c1)C(C(=O)NC1CCCCC1)c1ccco1)Nc1ccc(F)cc1 (stereo not drawn) | 6.2 | / | / | 24% | 1.1 | 0.65 | 2.5
O=S(=O)(c1ccc2c(c1)OCCO2)C1CCC(S(=O)(=O)c2c(F)cccc2F)CC1 (stereo not drawn) | / | i | -0.7 | / | 0.4 | 0.7 | 4.8
O=S(=O)(c1cccs1)N1CCN(Cc2nc3ccccc3s2)CC1 | -15 | / | / | -5% | -0.5 | 0.73 | 0.5
Cc1ccc(C)c(NC(=O)CN(C)C(=O)c2cc([N+](=O)[O-])ccc2N2CCOCC2)c1 | -2.4 | i | -18 | -5% | -0.3 | 0.67 | 11
CCOc1ccc2c(c1)C(c1ccc(C)o1)=NNC(c1ccncc1)=N2 | 4.8 | i | 6.6 | 20% | -0.4 | 0.71 | 11
C/C(=N\NC(=O)c1ccc(Br)cc1)c1cccnc1 | -1.9 | i | -0.3 | / | 4.8 | / | /
O=C(Nc1ccccn1)c1ccc(Cl)c(S(=O)(=O)N2CCCC2)c1 | 6.6 | / | 1.2 | 6% | -4.2 | 0.71 | 1.6
Cc1cccc(NS(=O)(=O)c2ccc(C(=O)NCC(c3ccco3)N(C)C)cc2)c1C (stereo not drawn) | 3.5 | i | 4.1 | 12% | -1.2 | 0.64 | -2.7
COc1ccc(NC(=O)CCNS(=O)(=O)c2cc(Br)ccc2Br)cc1S(N)(=O)=O | 1.3 | i | 4.3 | / | -1.4 | 0.7 | 0.7
NC(=O)COC(=O)CNC(=O)c1cc(Cl)cc([N+](=O)[O-])c1 | 6.3 | i | -0.8 | / | 0.0 | 0.68 | 5.0
Nc1ccccc1N1CCOCC1 | -0.8 | / | / | 0% | 1.7 | 0.69 | 3.0
Cn1cccc1C(=O)NC(=O)COC(=O)c1ccccc1O | -0.9 | / | / | 1% | -0.3 | 0.68 | -8.0
CCCOc1ccc(/C=C/C(=O)OCC(=O)N(C)c2c(N)n(Cc3ccccc3)c(=O)[nH]c2=O)cc1OCC | 1.7 | / | -6.3 | / | 10 | / | /
CCCS(=O)(=O)NC(=O)C1(C)CCCN(C(=O)c2nc3ccccc3s2)C1 (stereo not drawn) | / | i | -0.9 | / | -3.0 | / | /
C=CC(=O)NC(C)(C)CCN1CCOCC1 | 3.9 | i | -0.4 | 0% | -3.5 | 0.73 | 1.5
COCCCNC(=O)CC1C[C@H](C(=O)N2CCCCC2)[C@@]2(C)c3[nH]c4ccc(OC)cc4c3CCN2C1=O (stereo partly drawn) | / | i | -0.7 | 0% | -3.0 | 0.64 | 1.3
COc1cc(NC(=S)NCc2ccco2)cc(OC)c1OC | ? | / | / | / | -1.4 | 0.71 | 6.5
O=C(Nc1ccc2oc(-c3ccccc3)nc2c1)c1cccnc1 | 1.4 | / | / | 6% | 0.4 | 0.73 | 5.4
CCCCCCNC(=O)O[C@H]1C[C@@H]2C(=O)N(c3ccccc3)C(=O)[C@@H]2[C@@H]2CN(S(=O)(=O)c3ccc(C)cc3)C[C@]12O | / | i | -0.7 | 8% | 7.3 | / | /
N#Cc1c(-c2ccccc2)c(-c2ccccc2)nn(CC(=O)NNC(=O)Nc2ccc(Cl)cc2)c1=O | 10.0 | i | 0.3 | / | -5.4 | 0.67 | 3.7
COc1cccc(-c2nnc(NC(=O)c3ccco3)s2)c1 | 2.8 | i | -3.7 | / | 0.5 | 0.69 | 3.1
CCCCC(=O)NC(=S)NNS(=O)(=O)c1ccccc1 | 3.8 | / | / | / | 3.2 | 0.63 | 2.7
(continued)
SMILES | RanGTP-Imp inh | FGF22 binding | MLL AF4-AF9 inh | Vif TR-FRET | HNF4A DNA FP | Ecoli growth | UCH37 inh
O=C(Nc1cccnc1)c1c(F)c(F)c(F)c(F)c1F | ? | / | / | 2% | 1.1 | 0.74 | 0.0
CN(CCCC1CCCC1)C(=O)CC1C(=O)NCCN1Cc1ccc(F)cc1 (stereo not drawn) | ? | i | 1.3 | -4% | 2.5 | 0.69 | -18
CC1(C)Oc2ccc(C(=O)N/N=C/c3ccc(O)cc3)cc2NC1=O | 0.5 | i | 1.3 | / | -2.7 | / | /
Nc1ncnc2nc(SCCC(=O)O)[nH]c12 | 1.8 | i | -1.1 | 0% | 1.4 | 0.69 | -2.9
C/C(=C/C(=O)Nc1cccc(F)c1)N1CCCC1 | 0.4 | i | 4.3 | ? | 2.8 | 0.69 | 1.2
NC(=O)C1CC(=O)N(c2ccc(OCC(=O)NCc3ccccc3)cc2)C1 (stereo not drawn) | 0.9 | i | -1.1 | / | 1.7 | 0.69 | 3.6
COC(=O)/C=c1\sc2n(c1=O)C(C)=CC(C)(C)N=2 | 1.0 | / | / | 69% | 2.9 | / | /
CCn1c(SCC(=O)Nc2nccc(C)n2)nc2ccccc21 | ? | i | -5.4 | 21% | 1.7 | 0.67 | 3.0
C=C(C)Cn1c(SCC(=O)O)nnc1-c1ccc(OC)cc1 | 22* | / | / | -1% | -0.5 | 0.68 | 6.4
CCOC(=O)N1CCN(C(=O)c2cn(C)c3ccc(S(=O)(=O)N(CC)CC)cc3c2=O)CC1 | 0.1 | i | -1.1 | / | 4.1 | 0.67 | 5.3
CC#Cc1cc2c(cc1O)CCC1C2CCC2(C)C(O)CCC12 (stereo not drawn) | / | i | -0.1 | 0% | 0.1 | / | /
CCC(N=c1cc(-c2ccc(OC)c(OC)c2)oc2ccc(C)cc12)C(=O)O (stereo not drawn) | -4.7 | / | -6.1 | -5% | -1.8 | / | /
CCc1nc2c(OCCOc3ccc(F)cc3)cccn2c1N(C)C(=O)C(C)C | / | i | 1.3 | / | 1.2 | / | /
COc1ccnc(N2CCN(c3ccccc3)CC2)c1C#N | -1.9 | i | -37 | -8% | 0.0 | 0.64 | 1.1
OC[C@@H](O)[C@@H](O)[C@H](O)[C@H](O)CO | 8.2 | i | 6.9 | / | -1.4 | / | 4.1
CCc1noc(C)c1C(=O)Nc1cc(C(F)(F)F)ccc1-n1cncn1 | -0.8 | i | 0.1 | 0% | 2.6 | 0.7 | 1.1
c1cc(-c2ccc3c(c2)CCO3)n2cnnc2c1 | / | i | -1.0 | / | -7.0 | / | /
O=C(CCNS(=O)(=O)c1cccs1)N1CCN(c2cccc(C(F)(F)F)c2)CC1 | / | i | 0.5 | / | 0.7 | 0.7 | 3.2
CS(=O)(=O)N(CC(=O)Nc1cccc(Cl)c1)c1ccccc1Cl | 1.1 | / | / | -2% | -2.2 | 0.68 | 5.1
O=C(NC1CCCCC1)C(c1ccc2ncccc2c1)N(Cc1cccs1)C(=O)c1cccs1 (stereo not drawn) | -0.1 | / | / | 8% | -0.5 | 0.71 | 6.6
N#Cc1cccc(C(=O)Nc2cccc(S(=O)(=O)N3CCCC3)c2)c1 | 10.0 | i | -1.6 | / | -2.0 | 0.71 | -1.6
CCNc1nc(SC(C)C(=O)OC)nc(N(C)C)n1 (stereo not drawn) | -0.4 | i | -4.2 | / | -3.3 | 0.66 | 1.5
N#C/C(=C\c1c[nH]c2ccccc12)c1nnc2n1CCCCC2 | 4.1 | / | / | / | -3.9 | 0.68 | 9.0
Clc1ccc(CSC2=NCCCN2)cc1Cl | 1.1 | / | / | 12% | -0.4 | 0.69 | -0.9
Cc1ccc(S(=O)(=O)N2CCC(=O)N(CCOCc3cccc(C(F)(F)F)c3)CC2)cc1 | -2.7 | i | -3.1 | 10% | 0.2 | 0.71 | 0.9
The results go on.
SMILES | RanGTP-Imp inh | FGF22 binding | MLL AF4-AF9 inh | Vif TR-FRET | HNF4A DNA FP | Ecoli growth | UCH37 inh
CC(C)(C)Cc1nc(-c2ccc(Cl)cc2)no1 | -2.0 | / | / | 31% | -1.1 | 0.65 | 1.9
CCOC(=O)CSC1=C(C#N)C(c2ccc(F)cc2)C(C(C)=O)=C(C)N1 (stereo not drawn) | -2.4 | / | / | -11%&-2% | -1.9 | 0.69 | -5.3
COc1ccccc1/C=N\NC(=O)c1ccc(COc2ccc(C)c(C)c2)o1 | 3.1 | i | -0.6 | / | 4.5 | / | /
O=C(c1ccc([N+](=O)[O-])cc1)N(Cc1ccc(Br)cc1)N1C(=O)CCCC1=O | 0.4 | / | / | -1% | 2.8 | 0.66 | -2.5
O=C(CCCC(=O)N1CCCc2ccccc21)N1CCCc2ccccc21 | -0.2 | / | / | 2% | 2.1 | 0.69 | 4.2
CC(=O)OCCn1c2nc(=O)[nH]c(=O)c-2nc2cc(C)c(C)cc21 | -213 | i | 4.2 | / | -99 | 0.67 | 14
O=C(NCCN1C(=O)CCC1=O)c1ccncc1 | 0.1 | / | / | 1% | 4.0 | 0.68 | 3.9
Cc1cc(=O)n2c3ccccc3n(C)c2n1 | 4.4 | i | 2.1 | -2% | 0.4 | 0.65 | -13
Cc1ccccc1C(=O)NC(NCc1ccco1)C(Cl)(Cl)Cl (stereo not drawn) | ? | / | / | -3% | -4.7 | 0.72 | 2.0
O=C(N/N=C/c1ccco1)c1ccc(C(=O)N/N=C/c2ccco2)o1 | / | i | -0.5 | 22% | -6.6 | / | /
CCN(CC)C(=O)CSc1nc2cc(OC)c(OC)cc2c(=O)n1Cc1ccc(Cl)cc1 | 1.7 | / | / | 28% | -0.5 | 0.75 | -1.7
CCN(CC)S(=O)(=O)c1cccc(C(=O)/C=C2/N(C)c3ccccc3C2(C)C)c1 | 27* | i | -0.8 | -2% | 2.4 | 0.73 | -5.8
CCN(CC)c1ccc(NC(=O)c2ccc(Cl)nc2)cc1 | -0.4 | / | / | 6% | 0.4 | 0.71 | 3.0
Cc1cc(NC(=O)c2cccs2)cc(-c2nc3ncccc3o2)c1O | 8.7 | i | 2.6 | -6% | 0.8 | 0.71 | -1.7
Cc1ccc(C(=O)N[C@H](C(=O)Nc2ccc(N3CCOCC3)cc2)C(C)C)cc1 | / | i | -4.9 | -2% | -5.4 | 0.7 | -0.1
CCc1cc(C(=O)NCC(c2cccs2)N2CCOCC2)sc1C (stereo not drawn) | 0.6 | i | -0.4 | 0% | -1.2 | 0.69 | 5.8
Cn1c(=O)c2c(-c3ccccc3)n(N3CCOCC3)cc2n(C)c1=O | -3.9 | / | / | 6% | 2.5 | 0.67 | -2.8
CCN(CC(=O)Nc1c(F)cccc1F)C(=O)c1cc(S(=O)(=O)N2CCOCC2)ccc1N1CCCC1 | 1.7 | i | -7.1 | -2% | -1.1 | 0.66 | 0.5

Complete entries from above. Order of values: RanGTP-Imp inh | FGF22 binding | MLL AF4-AF9 inh | Vif TR-FRET | HNF4A DNA FP | Ecoli growth | UCH37 inh
CC(=O)OCCn1c2nc(=O)[nH]c(=O)c-2nc2cc(C)c(C)cc21 is listed with -213 | i | 4.2 | / | -99 | 0.67 | 14
Cc1cc(=O)n2c3ccccc3n(C)c2n1 is listed with 4.4 | i | 2.1 | -2% | 0.4 | 0.65 | -13
